Env fusion inh – inhibitors of HIV Env-mediated cell fusion; HeLa-JRFL Env/CEM21 cell fusion, luciferase; inhibition, % at 12.3 µM; 360,000 compounds, 1.1% hits; AID 651610;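 active = mean replicate inhibition score of at least 50 and every replicate individually at or above 50; inconclusive = only one of the two criteria met; inactive = mean below 50 and not all replicates reaching 50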;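 note: 0% = plate neutral controls and 100% = maraviroc near 300 nM; one replicate is shown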
* marks the source's active call; other numbers are inactive results; ? = inconclusive; [ ] = another dose, or the depositor's remark. These rows are one share of the data, so the mix of outcomes need not match the whole.

Env fusion inh	smiles
3[16.7 µM]	COc1ccc(CNC(=O)C[C@@H]2C[C@H]3c4cc(NC(=O)C5CCC5)ccc4O[C@H]3[C@H](CO)O2)cc1
-2	C=CCNc1ccc2c(c1)OC[C@@H](CC(C)C)NS2(=O)=O
1[16.7 µM]	CCCNC(=O)Nc1ccc2c(c1)C(=O)N(C)C[C@H](OC)[C@@H](C)CN(C(=O)c1ccccc1F)[C@H](C)CO2
37[16.7 µM]	C[C@@H]1CN([C@@H](C)CO)C(=O)c2c(c3ccccc3n2C)-c2ccccc2CO[C@H]1CN(C)C(=O)Cc1ccccc1
-3[16.7 µM]	O=C1N[C@@H](Cc2ccccc2)COCc2cn(nn2)CC[C@H]1Cc1ccccc1
-11[16.7 µM]	COCCNC(=O)C[C@H]1C[C@H]2c3cc(NS(=O)(=O)c4ccccc4)ccc3O[C@H]2[C@@H](CO)O1
10[16.7 µM]	O=C(C[C@@H]1C[C@@H]2c3cc(NC(=O)c4ccc5c(c4)OCO5)ccc3O[C@@H]2[C@@H](CO)O1)NCc1ccccn1
12[16.7 µM]	CN1CCN(C(=O)C[C@H]2CC[C@H]3[C@@H](COc4ccc(NC(=O)c5cscn5)cc4C(=O)N3C)O2)CC1
-14[16.7 µM]	CN1CCN(C(=O)C[C@H]2CC[C@@H]3[C@H](COC[C@H](O)CN3C(=O)c3ccccc3F)O2)CC1
-14[16.7 µM]	C[C@@H]1CN([C@@H](C)CO)C(=O)c2ccccc2-c2ccccc2CO[C@H]1CN(C)C(=O)Nc1ccnc(N2CCOCC2)c1

Remaining list, next part.
Env fusion inh	smiles
-11[16.7 µM]	Cc1ccc(S(=O)(=O)N[C@@H]2CC[C@H](CCNC(=O)c3ccccc3F)O[C@@H]2CO)cc1
?	COCCNC(=S)N(C)[C@H]1C[C@H]2c3[nH]c4c(-c5ccc6c(c5)OCO6)cccc4c3CCN2C(=O)[C@H]1[C@H](C)O
1[16.7 µM]	CO[C@H]1CN(C)C(=O)c2ccc(NC(=O)NC(C)C)cc2OC[C@@H](C)N(Cc2ccccn2)C[C@@H]1C
2[16.7 µM]	CC(C)NC(=O)N(C)C[C@H]1Oc2ncc(C#CC3CC3)cc2C(=O)N([C@H](C)CO)C[C@@H]1C
1[16.7 µM]	CC(C)NC(=O)N(C)C[C@@H]1OCCCC[C@@H](C)Oc2ccc(NC(=O)C3CCCCC3)cc2C(=O)N([C@@H](C)CO)C[C@@H]1C
0[16.7 µM]	COc1cccc(CNC(=O)C[C@@H]2CC[C@H]3[C@H](COc4ccc(NS(=O)(=O)c5ccccc5F)cc4C(=O)N3C)O2)c1
10[16.7 µM]	CC(C)NC(=O)Nc1cccc2c1O[C@H](CN(C)Cc1ccc(Cl)c(Cl)c1)[C@@H](C)CN([C@H](C)CO)C2=O
3[16.7 µM]	CO[C@@H]1CN(C)C(=O)c2ccc(NC(=O)C3CC3)cc2OC[C@@H](C)N(C(=O)c2ccncc2)C[C@@H]1C
25[16.7 µM]	O=C(Cc1ccncc1)NCC[C@@H]1CC[C@@H](NC(=O)C2CCC2)[C@@H](CO)O1
8[16.7 µM]	C[C@@H]1CN([C@H](C)CO)C(=O)c2cc(NS(=O)(=O)c3ccc(F)cc3)ccc2O[C@@H]1CN(C)S(=O)(=O)c1cn(C)cn1

(continued)
Env fusion inh	smiles
2[16.7 µM]	COCCNC(=O)C[C@H]1CC[C@@H]2[C@@H](COc3ccc(NC(=O)Cc4ccccc4)cc3C(=O)N2C)O1
-22	CCCN1CCCCC(NC(=O)c2ccc(Cl)cc2Cl)C1=O (stereo not drawn)
21[16.7 µM]	COc1cccc(C(=O)Nc2ccc3c(c2)C(=O)N(C)C[C@@H](OC)[C@H](C)CN(CCc2ccccc2)[C@@H](C)CO3)c1
-12[16.7 µM]	CC(C)NC(=O)Nc1cccc2c1O[C@H](CN(C)C)[C@@H](C)CN([C@@H](C)CO)C2=O
2[16.7 µM]	C[C@@H]1CN([C@@H](C)CO)C(=O)c2cc(N(C)C)ccc2O[C@@H](C)CCCCO[C@H]1CN(C)S(=O)(=O)c1cccs1
-2[16.7 µM]	COCC(=O)Nc1ccc2c(c1)OC[C@@H](C)N(C(=O)CC1CC1)C[C@H](C)[C@@H](OC)CN(C)C2=O
11[16.7 µM]	O=C(C[C@H]1C[C@@H]2c3cc(NC(=O)Nc4ccc(C(F)(F)F)cc4)ccc3O[C@@H]2[C@@H](CO)O1)NCc1ccc(Cl)cc1
-7[16.7 µM]	C/C=C/c1cnc2c(c1)C(=O)N([C@H](C)CO)C[C@@H](C)[C@@H](CN(C)Cc1ccccc1F)O2
-2	COC(=O)C1=C(C)N(Cc2ccc(C(F)(F)F)cc2)C(=NCc2ccc3c(c2)OCO3)NC1c1ccccc1 (stereo not drawn)
5[16.7 µM]	COc1ccc(NC(=O)Nc2ccc3c(c2)C(=O)N(C)C[C@H](OC)[C@H](C)CN[C@H](C)CO3)cc1

(listing goes on)
Env fusion inh	smiles
-11[16.7 µM]	C[C@@H]1CCCCO[C@H](CN(C)CC2CC2)[C@@H](C)CN([C@H](C)CO)C(=O)c2cc(NC(=O)Nc3ccccc3)ccc2O1
5[16.7 µM]	COc1ccccc1CN1C[C@H](C)[C@H](OC)CN(C)C(=O)c2cc(NC(C)=O)ccc2OC[C@H]1C
13	COC(=O)c1ccc(-c2cccc(CN3CCN(c4ncc(Cc5ccccc5)cn4)CC3)c2)cc1
-5[16.7 µM]	CN1CCN(C(=O)C[C@@H]2C[C@H]3c4cc(NC(=O)Cc5ccncc5)ccc4O[C@H]3[C@@H](CO)O2)CC1
22	C[C@H](O)[C@@H]1CN2CCc3ccc(-c4ccc5c(c4)OCO5)cc3[C@@H]2C[C@@H]1N(C)Cc1ccccc1
-2	CCOC(=O)c1cnc2c3c(noc13)CCC2
20[16.7 µM]	CC=Cc1ccc2n(c1=O)C[C@@H]1[C@@H](CO)[C@H](C(=O)NCCOC)[C@H]2N1Cc1nccs1 (mixture of isomers)
-67[16.7 µM]	C[C@H](CO)N1C[C@H](C)[C@H](CN(C)C(=O)Nc2ccccc2C(F)(F)F)OCc2ccccc2-c2ccccc2C1=O
-3[16.7 µM]	CCCN1C[C@@H](C)[C@H](OC)CN(C)C(=O)c2cc(NS(C)(=O)=O)ccc2OC[C@@H]1C
5[16.7 µM]	CN1C(=O)c2cc(NC(=O)c3cccc(C#N)c3)ccc2OC[C@H]2O[C@@H](CC(=O)NCCN3CCCC3)CC[C@@H]21

(listing goes on)
Env fusion inh	smiles
4[16.7 µM]	C[C@@H]1CN([C@@H](C)CO)C(=O)c2cc(-c3ccncc3)cnc2O[C@@H]1CN(C)C(=O)C1CCC1
65*	COC(=O)c1cc2c(c3c4cc(OC)ccc4n(S(=O)(=O)c4ccccc4)c13)C(=O)N(C)C2
-4[16.7 µM]	C[C@@H]1CN([C@H](C)CO)C(=O)c2cc(NC(=O)Nc3cccc4ccccc34)ccc2O[C@@H]1CN(C)Cc1ccncc1
-68	Cc1ccc(S(=O)(=O)N(C)[C@H]2C[C@H]3c4[nH]c5c(-c6ccccc6)cccc5c4CCN3C(=O)[C@H]2[C@H](C)O)cc1
-5[16.7 µM]	CN1C(=O)c2cc(NC(=O)Cc3cccs3)ccc2OC[C@@H]2O[C@@H](CC(=O)NCCCN3CCOCC3)CC[C@H]21
0[16.7 µM]	COC(=O)C[C@@H]1CC[C@H]2[C@@H](COc3ccc(NS(=O)(=O)c4ccc(F)cc4)cc3C(=O)N2C)O1
-2[16.7 µM]	CC(C)NC(=O)Nc1ccc2c(c1)C(=O)N([C@@H](C)CO)C[C@@H](C)[C@@H](CN(C)C(=O)c1ccccc1)OCCCC[C@H](C)O2
22	COC(=O)C1=C(C)N(Cc2ccc(C(F)(F)F)cc2)C(=NCC2CC2)NC1c1cccc(Cl)c1 (stereo not drawn)
-13[16.7 µM]	C[C@@H]1CN([C@H](C)CO)S(=O)(=O)c2ccc(-c3ccc(F)cc3)cc2O[C@@H]1CN(C)C(=O)Nc1ccc(F)cc1
-2[16.7 µM]	COc1ccc2c3c([nH]c2c1)[C@H](CO)N(Cc1ccncc1)CC31CCN(C(=O)c2cccnc2)CC1

Next section.
Env fusion inh	smiles
15[16.7 µM]	O=C(C[C@@H]1CC[C@H]2[C@@H](COC[C@H](O)CN2Cc2ccc(Oc3ccccc3)cc2)O1)N1CCN(c2ccccc2)CC1
-3[16.7 µM]	CO[C@@H]1CN(C)C(=O)c2cc(NS(=O)(=O)c3cccc(F)c3)ccc2OC[C@@H](C)N(C(=O)Cc2cccnc2)C[C@@H]1C
12[16.7 µM]	CCCNC(=O)c1cc2c(c(-c3cccc(-c4cccc(OC)c4)c3)n1)[C@H](CCO)N([S@@](=O)C(C)(C)C)C2
5	COC(=O)[C@]12C[C@H](CC(=O)NCc3cccs3)C(=O)N(Cc3ccccc3)C1=C[C@H](C1CCCC1)O[C@@H]2C
-15[16.7 µM]	COCC(=O)N1[C@H](C(=O)NCc2ccccc2)[C@@H](CO)[C@@H]2Cn3c(cccc3=O)[C@@H]21
28[16.7 µM]	CO[C@H](C(=O)N(C)C[C@@H]1OCc2ccccc2-c2ccccc2C(=O)N([C@@H](C)CO)C[C@H]1C)c1ccccc1
9	COc1cccc(-c2cc(CNC(=O)[C@@H](Cc3ccccc3)NC(=O)[C@H]3O[C@@H](n4cnc(C(N)=O)n4)[C@H](O)[C@@H]3O)no2)c1
-18[16.7 µM]	CNC[C@H]1OCCCC[C@@H](C)Oc2ccc(NC(=O)Nc3ccc(F)cc3)cc2C(=O)N([C@@H](C)CO)C[C@@H]1C
-2[16.7 µM]	CO[C@@H]1CN(C)C(=O)c2cc(NC(=O)Nc3cccc(F)c3)ccc2OC[C@@H](C)N(C(=O)C2CC2)C[C@H]1C
-11	O=C(C(=O)N1CCC(CNS(=O)(=O)c2ccc(C(F)(F)F)cc2)CC1)c1cc2ccccc2o1

Further compounds.
Env fusion inh	smiles
11[16.7 µM]	COCC(=O)Nc1ccc2c(c1)[C@@H]1C[C@H](CC(=O)NCc3ccc4c(c3)OCO4)O[C@H](CO)[C@@H]1O2
2[16.7 µM]	O=C(C[C@H]1C[C@H]2c3cc(NC(=O)c4ccc5c(c4)OCO5)ccc3O[C@H]2[C@H](CO)O1)NCCc1ccccc1
-34[16.7 µM]	CC(C)NC(=O)N1CC2(C1)[C@@H](c1ccccc1)[C@@H](CO)N2C(=O)C1CCCCC1
79*	C[C@H]1CNC(=O)c2c(C(=O)N3CCN(c4ccccc4)CC3)ncn21
30	CCCCS(=O)(=O)N1C2=NC(C(=O)OCC)=C(C(=O)OCC)C3N(Cc4ccc(C#N)cc4)c4ccccc4[C@]23C[C@H]1C(=O)OC (stereo partly drawn)
3[16.7 µM]	O=C(CN1CCOCC1)N[C@H]1CC[C@H](CCNC(=O)C2CCC2)O[C@@H]1CO
-10[16.7 µM]	CO[C@H]1CN(C)C(=O)c2cc(NC(C)=O)ccc2OC[C@@H](C)N(Cc2cccnc2)C[C@H]1C
0[16.7 µM]	COc1cccc(NC(=O)N2C[C@@H](O)COC[C@H]3O[C@H](CC(=O)NC4Cc5ccccc5C4)CC[C@@H]32)c1
0	Cc1ccc(S(=O)(=O)NC(=O)ON=Cc2ccc3c(c2)OCO3)cc1
3[16.7 µM]	COc1ccc2c3c(n(C)c2c1)[C@H](CO)N(CC1CCCCC1)CC31CCN(C(C)=O)CC1
-27[16.7 µM]	C/C=C/c1ccccc1[C@H]1[C@@H](CO)N(C(=O)Nc2ccc(OC)cc2)[C@H]1C#N
-99[16.7 µM]	O=C(C[C@H]1C=C[C@H](NC(=O)Cc2cccnc2)[C@H](CO)O1)Nc1ccccc1

An excerpt from above in order of SMILES length, high to low.
Env fusion inh	smiles
9	COc1cccc(-c2cc(CNC(=O)[C@@H](Cc3ccccc3)NC(=O)[C@H]3O[C@@H](n4cnc(C(N)=O)n4)[C@H](O)[C@@H]3O)no2)c1
30	CCCCS(=O)(=O)N1C2=NC(C(=O)OCC)=C(C(=O)OCC)C3N(Cc4ccc(C#N)cc4)c4ccccc4[C@]23C[C@H]1C(=O)OC (stereo partly drawn)
28[16.7 µM]	CO[C@H](C(=O)N(C)C[C@@H]1OCc2ccccc2-c2ccccc2C(=O)N([C@@H](C)CO)C[C@H]1C)c1ccccc1
2[16.7 µM]	O=C(C[C@H]1C[C@H]2c3cc(NC(=O)c4ccc5c(c4)OCO5)ccc3O[C@H]2[C@H](CO)O1)NCCc1ccccc1
12[16.7 µM]	CCCNC(=O)c1cc2c(c(-c3cccc(-c4cccc(OC)c4)c3)n1)[C@H](CCO)N([S@@](=O)C(C)(C)C)C2
0[16.7 µM]	COc1cccc(NC(=O)N2C[C@@H](O)COC[C@H]3O[C@H](CC(=O)NC4Cc5ccccc5C4)CC[C@@H]32)c1
-15[16.7 µM]	COCC(=O)N1[C@H](C(=O)NCc2ccccc2)[C@@H](CO)[C@@H]2Cn3c(cccc3=O)[C@@H]21
-10[16.7 µM]	CO[C@H]1CN(C)C(=O)c2cc(NC(C)=O)ccc2OC[C@@H](C)N(Cc2cccnc2)C[C@H]1C
-11	O=C(C(=O)N1CCC(CNS(=O)(=O)c2ccc(C(F)(F)F)cc2)CC1)c1cc2ccccc2o1
-34[16.7 µM]	CC(C)NC(=O)N1CC2(C1)[C@@H](c1ccccc1)[C@@H](CO)N2C(=O)C1CCCCC1
-27[16.7 µM]	C/C=C/c1ccccc1[C@H]1[C@@H](CO)N(C(=O)Nc2ccc(OC)cc2)[C@H]1C#N
-99[16.7 µM]	O=C(C[C@H]1C=C[C@H](NC(=O)Cc2cccnc2)[C@H](CO)O1)Nc1ccccc1
3[16.7 µM]	O=C(CN1CCOCC1)N[C@H]1CC[C@H](CCNC(=O)C2CCC2)O[C@@H]1CO
79*	C[C@H]1CNC(=O)c2c(C(=O)N3CCN(c4ccccc4)CC3)ncn21
0	Cc1ccc(S(=O)(=O)NC(=O)ON=Cc2ccc3c(c2)OCO3)cc1
